UCH37 DUB inh – inhibitors of human UCH37 deubiquitinase, primary screen, biochemical, Ub-AMC cleavage, fluorescence; actives 0.33% (n = 330,000); purified proteasome/UCH37; Ubiquitin carboxyl-terminal hydrolase isozyme L5 (Homo sapiens), Q9Y5K5; inhibition, % (concentration not given with the values); AID 588478, 2011;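 active = mean of two replicates above 20%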;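 note: 0% = compound-free wells with enzyme and 100% = wells lacking proteasome; stock transfer was 100 nL into about 20 µL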
Target sequence (Q9Y5K5 whole entry, looked up): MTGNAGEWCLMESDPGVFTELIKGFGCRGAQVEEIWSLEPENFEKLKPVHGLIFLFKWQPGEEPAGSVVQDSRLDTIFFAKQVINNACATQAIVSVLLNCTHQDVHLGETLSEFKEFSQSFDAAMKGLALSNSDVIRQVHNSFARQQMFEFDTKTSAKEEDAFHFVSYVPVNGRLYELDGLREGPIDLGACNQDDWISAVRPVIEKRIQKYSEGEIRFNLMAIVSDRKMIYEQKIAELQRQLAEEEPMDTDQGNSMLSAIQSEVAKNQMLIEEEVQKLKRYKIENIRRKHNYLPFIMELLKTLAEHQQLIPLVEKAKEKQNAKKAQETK
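Assay system: Proteasome-bound UCH37. Buffer or medium: pH 7.4 Tris-HCl (50 mM) with ovalbumin, ATP-MgCl2, DTT. Incubation: 30 min preincubation with enzyme, 25 min cleavage at room temperature. Measured by: fluorescence, ex 355 nm, em 460 nm. Read-out basis: percent inhibition. Control set: wells without proteasome as full block, compound-free enzyme plus substrate as uninhibited.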
Bfl-1 A1 inh – caspase 3/7 activation in MEF A1-2A-BIM cells, primary screen, A1 inhibitor project, cell-based, luminescence, HTS; actives 0.066% (n = 330,000); Caspase-Glo 3/7 luminescence, 3 h; percent of clofoctol response, vehicle zero; AID 2462, 2010; caspase activation, % (concentration not given with the values);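 active = over half of replicate activation scores above 10%, or exactly half above 10 with the replicate mean above 10; inconclusive = replicate mean below 10 yet half the replicates above 10; inactive = over half of replicates below 10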;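 note: wells of about 30 µL received 50 nL stock; many hits fall short of the cut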
T cruzi repl – inhibitors of intracellular T. cruzi growth, primary screen, luminescence, NIH3T3 host cells; inhibition, % (no concentration beside the values); AID 1885, 2009; T. cruzi beta-gal in NIH3T3, 90 h; actives 1.4% (n = 300,000);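 active = mean inhibition across valid replicates above about 55%, limit read from the data; inconclusive = mean below that limit but half or more replicates reach it; inactive = mean below it, under half of replicates reach it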;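 note: signal also drops with host cell toxicity which is not excluded here; 0% = plate median of DMSO wells and 100% = zero luminescence signal; higher percent means less beta-gal luminescence so fewer parasites; stock transfer was 50 nL into about 50 µL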
Calb FLC – C. albicans growth inhibition with fluconazole, primary screen, CaCi-2 strain, Alamar Blue fluorescence. AID 1979, 2009. actives 0.57% (n = 300,000). growth inhibition, % (concentration not given with the values). C. albicans CaCi-2 (fluconazole-resistant clinical isolate) + fluconazole, 48 h;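 active = most replicates above 75%; inconclusive = exactly half above 75%; inactive = most below 75%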;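 note: all wells also contain fluconazole at 8 µg/ml as a sub-toxic cotreatment; 0% = median of DMSO wells and 100% = median of geldanamycin control wells; wells of about 8 µL received 7.5 nL stock; the first replicate is given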
Beta cell apopt – inhibitors of cytokine-induced beta cell apoptosis, primary screen, luminescence | actives 0.8% (n = 300,000) | INS-1E cytokine-induced death, ATP luminescence, 48 h; percent of positive-control rescue, neutral wells zero | protection from apoptosis, % (no concentration beside the values);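 active = all replicates at 75% or more, or half of them and the mean; inconclusive = half reach 75% but not the mean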;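 note: 0% = cytokine-treated negative control wells and 100% = positive control rescue; higher means more ATP so stronger rescue from cytokine killing; wells of about 40 µL received 100 nL stock; the first replicate is given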
RanGTP-Impb inh – inhibitors of RanGTP-importin-beta interaction, primary screen, biochemical, FRET, CFP-Ran, YFP-importin-beta, homogeneous | Ran GTPase (GTP-bound) - importin-beta complex | cell-free CFP-Ran/YFP-importin-beta FRET ratio | inhibition, % (concentration not given with the values) | actives 1.1% (n = 300,000);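 active = most replicates above 15%; inconclusive = exactly half above 15%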;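 note: 0% = DMSO wells and 100% = Ran loaded with GDP instead of GTP; wells of about 40 µL received 100 nL stock; the first replicate is given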
LANA-H2A inh – blockers of LANA interaction with H2A/H2B – biochemical, FP readout, HTS, primary screen | Protein LANA1 (Human herpesvirus 8 type P (isolate GK18)), Q9QR71 | cell-free LANA-H2A/H2B peptide, fluorescence polarization | inhibition, % (concentration not given with the values) | actives 0.6% (n = 320,000); in the data active = inhibition mostly above about 10%, no sharp cut-off; inactive = mostly below about 6.7%;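 note: stock transfer was 7.5 nL into about 10 µL; 0% = median of vehicle wells and 100% = median of positive control wells; one replicate is shown; the record names a cut of 25% in any replicate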
B2AR ag – beta2AR agonists driving receptor internalization, primary screen, cell-based, FAP fluorogen, flow cytometry; actives 0.43% (n = 340,000); response, % (concentration not given with the values); Am2.2-beta2AR cells; reference of the scale not given here; AID 504454, 2011;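 active = response above a set limit, near 3 SD of response in nonfluorescent compounds, cut at about 42% in these data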;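 note: stock transfer was 100 nL into about 11 µL; a reference agonist was the positive control; negative values mostly stem from fluorescent compounds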
Target sequence (P07550 whole entry, looked up): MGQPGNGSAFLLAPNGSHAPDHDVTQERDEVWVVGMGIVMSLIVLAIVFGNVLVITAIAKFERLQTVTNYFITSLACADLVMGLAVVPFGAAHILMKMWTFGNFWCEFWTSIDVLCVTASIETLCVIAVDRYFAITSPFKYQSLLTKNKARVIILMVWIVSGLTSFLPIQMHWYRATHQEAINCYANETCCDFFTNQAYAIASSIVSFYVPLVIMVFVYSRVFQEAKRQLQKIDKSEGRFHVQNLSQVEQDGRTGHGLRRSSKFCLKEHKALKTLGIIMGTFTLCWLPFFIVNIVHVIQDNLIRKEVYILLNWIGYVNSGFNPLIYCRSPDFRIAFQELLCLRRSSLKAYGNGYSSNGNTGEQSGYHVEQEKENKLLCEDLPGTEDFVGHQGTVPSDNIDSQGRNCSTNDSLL
* marks the source's active call; other numbers are inactive results; ? = inconclusive; . = not tested or not shown.

SMILES	UCH37 DUB inh	Bfl-1 A1 inh	T cruzi repl	Calb FLC	Beta cell apopt	RanGTP-Impb inh	LANA-H2A inh	B2AR ag
O=C(Nc1ccc(S(=O)(=O)C(F)F)cc1)c1cccc(S(=O)(=O)N2CCOCC2)c1	4.3	0.3	-8	-15	5	0.0	3.1	17
COc1ccc(Cn2c(SCc3ccccc3C)nc3cc(OC)c(OC)cc3c2=N)cc1	5.7	0.4	48	47	108*	1.4	-1.5	34
Cn1c(=O)c([N+](=O)[O-])c(NCc2ccccc2Cl)c2ccccc21	5.3	-0.3	4	5	-9	-0.9	0.7	-3
CN1c2ccccc2N(C)C1(C)c1cccc2ccccc12	4.5	-0.2	58*	13	12	-2.8	-4.7	9
Cc1ccc2c(c1)C(=C(C#N)C#N)C(=O)N2CCN1CCOCC1	7.4	0.9	1	-3	-4	6.3	0.1	14
Cc1cccc(NC(=S)NNC(=O)c2ccccc2OC(F)F)c1	3.4	0.0	15	-14	6	3.4	0.5	8
C[C@H](CO)N1C[C@H](C)[C@@H](CN(C)CC2CC2)Oc2c(NC(=O)Cc3ccccc3)cccc2C1=O	0.8	0.4	.	.	-16	.	1.0	3
Cc1ccccc1OCCCn1c(CO)nc2ccccc21	4.2	0.2	-12	-2	-3	4.7	2.6	8
CN(C)c1ccc(C(=O)Nc2ccc(CN3CCS(=O)(=O)CC3)cc2)cc1	3.0	0.2	-1	2	-4	-2.1	-11	9
FC(F)(F)c1cccc(-c2nnc(-c3ccccc3)c(N3CCOCC3)n2)c1	4.8	0.7	24	-3	-2	-1.8	0.4	-10
COC(=O)c1cccc(NC(=O)c2ccc(S(=O)(=O)N3CCN(C)CC3)cc2)c1	1.6	-0.6	-14	-7	-6	-3.8	-1.9	12
CCN1C(=O)C(CC(=O)Nc2c(C)cccc2C)Nc2cc(S(=O)(=O)N(C)C)ccc21 (stereo not given)	2.8	-0.6	7	-19	-5	5.2	-1.9	4
N#Cc1cc(C#N)c(SCC(=O)NCC2CCCO2)nc1N (stereo not given)	-11	-0.9	-9	41	0	-0.1	1.1	-8
CCOC(=O)C1(CCCc2ccccc2)CCN(C(=O)CN2C(=O)CSC2=O)CC1	3.6	0.2	2	-19	-1	0.5	-5.7	-7
CCCOc1ccc(-c2c(C(=O)N/N=C(\C)c3ccncc3)nnn2-c2nonc2N)cc1	.	0.0	47	0	.	4.2	3.2	3
COc1cc(/C=C(/C#N)c2nc3ccccc3[nH]2)ccc1OCc1ccc(C(=O)O)o1	.	-0.2	0	-5	3	5.9	-1.5	40
COc1ccccc1/C=C/C=N/N1CCN(Cc2ccccc2)CC1	.	0.2	5	-1	-1	0.2	8.3	-7
O=C(NCc1cn2ccccc2n1)c1ccco1	2.6	-0.1	-11	-5	-1	8.1	-1.4	2
COc1ccc(C(CNC(=O)c2oc3ccc(Br)cc3c2C)N2CCCCC2)cc1 (stereo not given)	2.5	-0.7	55*	-4	-11	-0.7	7.9	1
Cc1ccn(-c2n[nH]c(C)c2[N+](=O)[O-])n1	0.0	0.1	-39	?	-13	2.6	-1.1	-3
CCN1C(=O)C(=O)N(CC(=O)N(C)CC(=O)Nc2ccccc2C(F)(F)F)C1=O	0.2	1.0	.	.	1	.	4.0	3
O=C(CCCNC(=O)c1ccc(Cl)cc1)NCc1ccc(F)cc1	.	0.2	-6	-9	-1	-1.6	0.7	-2
Cc1cc(NC(=O)Cn2nc(C(F)(F)F)c3c2CCC3)no1	0.0	-1.1	12	11	.	1.4	-0.2	-4
COc1ccccc1NC(=O)c1sc(NC(=O)c2ccco2)c(C#N)c1C	-172	0.1	-1	-10	5	-5.0	-3.5	-2
CN(C)C(CNC(=O)CCNC(=O)c1ccccc1Cl)c1ccco1 (stereo not given)	1.9	0.2	.	.	0	.	8.2	17
O=C(CNc1cccc(S(=O)(=O)N2CCCCC2)c1)Nc1ccccc1F	1.5	0.5	2	-3	-2	2.1	-1.0	2
CN(C1CCCCC1)S(=O)(=O)c1ccc(NC(=O)C2CCCCC2C(=O)O)cc1 (stereo not given)	4.4	0.6	-5	0	.	-0.1	1.3	-2
O=C(/C=C\Nc1cccc(F)c1)c1cccs1	0.0	-11	2	4	0	1.5	-5.6	-5
CCOC(=O)c1sc2nc(CSCC(=O)OCc3ccc(C(=O)OC)o3)[nH]c(=O)c2c1C	0.5	-0.7	-14	21	-4	-6.3	7.5	-2
Cc1ccc(/C=N/NC(=O)c2cccs2)s1	.	-4.2	-19	7	2	0.6	-0.2	2
N#CC1(NC(=O)CSc2nnc3n2CCCCC3)CCCCC1	5.3	0.6	.	.	3	.	-5.2	0
CC(C)CC(=O)Nc1nnc(S(=O)(=O)N2CCc3ccccc32)s1	9.6	-1.0	1	-13	-1	-2.7	5.8	9
COc1ccccc1C1C2=C(CC(C)(C)CC2=O)N(CC(=O)O)C2=C1C(=O)CC(C)(C)C2	-429	0.3	5	2	-10	164*	2.3	-8
C=CCNC(=O)Cc1c(OC)ccc2cc(Br)ccc12	5.4	-0.5	-3	15	-5	4.0	0.8	-12
CCOC(=O)c1cnc(-n2nc(C)cc2C)nc1NC1CCCCC1	-8.0	-0.8	76*	5	.	2.8	0.5	-8
O=C(NNC(=O)C1CCC1)c1ccccc1F	2.0	-0.3	-9	11	-9	-0.9	2.2	-8
Brc1ccccc1-c1nc2c3ccccc3ncn2n1	-2.5	-2.1	.	.	-4	.	.	-4
C=CCc1cccc(/C=N/NC(=O)c2ccccc2Br)c1O	.	0.0	61*	10	70	-1.0	-2.7	3
O=C(N/N=C/c1ccc(O)cc1)c1csc2ccccc12	.	0.5	3	114*	-4	-0.7	3.8	4
COc1cc(/C=C/C(=O)OCC(=O)N(C)Cc2ccccc2)ccc1O	-10	0.1	.	.	-1	.	2.7	2
CCS(=O)(=O)c1nc(S(=O)(=O)c2ccc(C)cc2)c(N2CCOCC2)s1	1.9	0.3	-18	-3	2	7.6	0.8	0
N#CCOc1ccccc1/C=C/c1nc2ccccc2c(=O)[nH]1	-142	0.7	-2	2	.	-0.5	-5.7	-5
CC1CCN(CC(=O)N2CCc3ccccc32)CC1	1.8	0.4	-7	2	3	0.5	-1.5	3
CCC(OC(=O)c1cccs1)C(=O)NC1CCCCC1 (stereo not given)	-0.6	1.4	7	-30	-6	-1.9	-2.5	-1
COc1cc(OC)cc(-c2nc(N)n[nH]2)c1	1.9	-1.1	-3	-2	-3	-1.7	-0.8	-3
CN1C(=O)CC(N2CCN(c3ncccn3)CC2)C1=O (stereo not given)	5.0	-0.5	3	-6	-3	-5.1	-1.1	-2
COc1ccccc1CN1CC(C(=O)N(C)Cc2[nH]c3ccccc3c2C)CCC1=O (stereo not given)	4.3	-0.6	-1	10	0	3.7	1.8	-5
O=C(CC(c1ccccc1)c1cc(Cl)ccc1O)N1CCCC1 (stereo not given)	5.7	1.0	4	6	-4	-3.2	2.0	-8
CN1C(C(=O)NCC2CC2)CC2Cn3c(nc4cc5ccccc5cc43)C21 (stereo not given)	3.6	0.2	-12	-2	1	-0.5	-9.1	3
O=C(COc1cccc2ccccc12)Nc1ccc(Cl)cc1C(=O)O	4.3	0.9	-3	11	-6	2.2	5.0	6
CC(=O)c1ccc(NC(=O)CSc2nc(=O)n(CCN3CCOCC3)c3c2CCC3)cc1	3.1	-0.4	3	13	.	1.8	-1.8	-6
COc1ccc(C(=O)N/C(=C\c2cn(C)c3ccccc23)C(=O)NCCCn2ccnc2)cc1	13	-0.4	3	-5	-3	-0.1	0.5	-4
COc1ccc(NC(=S)N2CCCC2)cc1OC	0.8	0.9	-5	15	.	1.9	-2.1	-3
COc1ccc(C(=O)N/C(=C/c2ccco2)C(=O)NCc2ccco2)cc1	1.9	1.5	-2	5	2	2.4	-0.9	5
NS(=O)(=O)c1ccc(NC(=S)NCc2ccco2)cc1	4.3	0.1	-3	-5	-10	-1.8	1.7	6
CC(=O)c1ccc(OCc2ncc(C(F)(F)F)cc2Cl)cc1	4.1	0.1	7	-13	1	0.4	2.3	-14
Cc1ccc(Cc2ccc(C(=O)NNC(N)=S)o2)cc1	4.2	-0.2	-2	24	-5	2.4	-3.2	5
Cc1onc(-c2ccccc2Cl)c1C(=O)Nc1ccc(-n2nncc2-c2ccco2)cc1	6.4	1.8	26	-6	6	0.0	-3.0	11
COc1ccccc1-c1ccc(Nc2cccc(C(C)=O)c2)nn1	-1.2	-1.1	-6	-16	0	-4.8	-12	1
CCc1ccc(-c2ccc(SCC(=O)Nc3nnc(C)s3)nn2)cc1	2.0	-4.4	-16	6	1	-1.1	2.4	-5
(list continues)
SMILES	UCH37 DUB inh	Bfl-1 A1 inh	T cruzi repl	Calb FLC	Beta cell apopt	RanGTP-Impb inh	LANA-H2A inh	B2AR ag
COC(=O)c1cc(COC(=O)c2ccc(OC)c(S(=O)(=O)N3CCCC3)c2)oc1C	-0.5	.	8	.	.	1.4	.	2
Clc1cc(Cl)c2nc(N3CCOCC3)sc2c1	5.2	-5.0	-1	15	-4	-0.3	7.8	-2
COc1ccc(/C=N/NC(=O)c2nonc2N)cc1OC	.	0.2	-4	-7	-5	6.7	-0.6	-4
O=C(OCn1nnc2ccccc2c1=O)c1cc(-c2ccccc2Cl)nc2ccccc12	-2.4	-0.2	0	-8	1	-1.3	1.9	1
CC(=O)/C=C(\C)Nc1ccccc1O	3.9	1.5	-14	-14	-11	1.0	0.1	12
Nc1c(C(=O)CSc2nnc(-c3ccccc3)o2)c(=O)[nH]c(=O)n1C1CC1	2.4	-0.7	.	.	-4	.	-4.4	-3
Cc1cccc(-c2cc3nc(C)cc(NCCCN(C)C)n3n2)c1	-10	0.0	46	-10	.	2.1	-0.9	4
COc1ccc(NC(=O)C(CC(=O)O)C(C)c2ccccc2)cc1 (stereo not given)	4.1	0.1	2	-3	-6	-3.2	-5.4	-6
COc1ccc2cc(CO)c(Cl)nc2c1	-6.5	-0.2	2	-13	-3	2.7	-6.8	1
CC(=O)Nc1nnc(Cc2c[nH]c3ccccc23)s1	1.8	0.6	-2	-16	-11	0.1	-0.9	9
Cc1nc(N2CCN(S(=O)(=O)c3ccc(F)cc3)CC2)c2c(C)c(C)sc2n1	2.4	-0.4	16	-3	.	-1.2	6.8	1
COc1ccc(-c2ccc(SCC(=O)N3CCOCC3)nn2)cc1OC	5.9	0.1	-10	2	-1	2.5	-0.7	-7
CCCOCC(O)COc1ccccc1C(=O)N1CCOCC1 (stereo not given)	0.2	0.3	6	-8	2	2.7	-1.2	-3
CCOc1ccc(NC(=O)CN(C)CC(=O)Nc2cccc(Cl)c2C)cc1OCC	4.4	0.1	8	2	-10	-2.5	0.7	0

Bioassay records from PubChem BioAssay.

Compounds as they come; overall some 4.3% were active at least once.
